Rango dissoc inh – prevents RanGTP from dissociating the Rango-importin beta complex | O95149+P62826 | 340,000 tested, 0.071% active | Biochemical FRET Rango-importin beta, RanGTP-induced dissociation | Potency, µM (doses to about 46.1 µM), for the others: at the highest dose activity change, negative = inhibition; active means falling FRET ratio curve, often poorly fitted, with flat reads before Ran was added; inconclusive means other falling curves, or compound fluorescence or quenching; inactive means flat or rising ratio curve;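 also: potency is read from the fitted curve at half-maximal effect; % of control where 0% means no effect; nearly all actives have a fitted effect of over 45% in size; -100% = wells without RanGTP and RCC1; the record marks most hits as doubtful in a second field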
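Rango/importin beta premix (0.1/0.25 uM final), PBS + 1 mM DTT + 0.02% Tween-20 + 0.1% BSA; cpd 5 min RT; FRET pre-read; + RanGTP-RCC1 (0.6 uM Ran, 2 mM GTP, 0.2 uM RCC1); 45 min RT; FRET post-read, ex 430, em 486/530 nm.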
Rango-impB inh – inhibitors of Rango-importin beta complex formation; Q14974; Rango CFP/YFP FRET sensor + importin beta, 45 min; 340,000 tested, 0.031% active; Potency, µM (highest dose often 92.2 µM), for inactives: at the highest dose inhibition of complex formation; active = rising FRET ratio curve, often small or poorly fitted; inconclusive = mostly compound fluorescence or quenching in the first reads; inactive = flat curves in all reads;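 also: potency is read from the fitted curve at half-maximal effect; 0% = DMSO wells and 100% = buffer wells lacking importin beta; nearly all actives have a fitted effect of over 15% in size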
Target sequence (Q14974 whole entry, looked up): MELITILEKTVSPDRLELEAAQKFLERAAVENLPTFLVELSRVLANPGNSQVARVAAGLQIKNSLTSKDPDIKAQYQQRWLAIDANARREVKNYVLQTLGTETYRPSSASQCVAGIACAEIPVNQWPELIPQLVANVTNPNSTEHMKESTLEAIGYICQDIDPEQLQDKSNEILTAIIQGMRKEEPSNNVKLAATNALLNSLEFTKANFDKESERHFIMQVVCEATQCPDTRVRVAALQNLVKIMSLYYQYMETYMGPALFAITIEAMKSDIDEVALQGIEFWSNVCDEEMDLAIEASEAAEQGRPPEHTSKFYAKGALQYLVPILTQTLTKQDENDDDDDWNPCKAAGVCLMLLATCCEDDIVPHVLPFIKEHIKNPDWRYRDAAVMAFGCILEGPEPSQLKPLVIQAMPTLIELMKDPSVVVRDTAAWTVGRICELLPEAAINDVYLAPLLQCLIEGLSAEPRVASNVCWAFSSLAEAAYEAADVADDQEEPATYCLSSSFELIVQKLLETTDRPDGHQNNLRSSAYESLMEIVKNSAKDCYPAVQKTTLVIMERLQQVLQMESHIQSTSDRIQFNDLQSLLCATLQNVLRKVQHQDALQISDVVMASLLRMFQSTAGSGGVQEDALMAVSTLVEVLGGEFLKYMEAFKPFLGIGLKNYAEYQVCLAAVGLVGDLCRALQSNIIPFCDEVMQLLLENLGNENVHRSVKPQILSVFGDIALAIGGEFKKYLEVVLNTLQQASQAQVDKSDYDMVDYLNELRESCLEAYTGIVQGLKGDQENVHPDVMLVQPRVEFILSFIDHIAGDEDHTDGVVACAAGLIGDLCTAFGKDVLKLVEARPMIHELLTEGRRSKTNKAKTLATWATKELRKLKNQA
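FRET biosensor Rango (snurportin 1 IBB between N-terminal EYFP and C-terminal Cerulean), 50 nM in PBS/1 mM DTT/0.02% Tween-20/0.1% BSA, preincubated 5 min RT with compound; 0.125 microM importin beta added, 45 min RT, CFP/YFP FRET ratio read.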
miR-21 reporter – miR-21 reporter, rising signal; HeLa miR-21 FLuc reporter, luciferase, 48 h; Potency, µM (titrated, usually from 38.3 µM), inactives show at the top dose reporter change, positive = more light; 340,000 tested, under 10 active; AID 2288; active = well fitted rising curve with a large enough effect; inconclusive = small, poorly fitted or top-dose-only effect; inactive = no such curve, though single readings can be large or run the other way;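 also: % of control where 0% means no effect; miR-21 action dims this reporter so a rising signal means less miR-21 action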
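HeLa cells stably expressing CMV-driven firefly luciferase with a downstream miR-21 binding sequence, endogenously expressing miR-21, were treated with titrations (up to about 40uM final) for 48 hours at 37 degree Celsius. Luciferase luminescence was read after lysis.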
GLA inh pH 4.5 – alpha-galactosidase A (human) inhibition, pH 4.5 | 230,000 tested, under 10 active | purified enzyme, 4-MU-alpha-Gal fluorescence, pH 4.5 | P06280 | AID 1467 | activity change, negative = inhibition, % at 105 µM; inconclusive = small, poorly fitted or top-dose-only inhibition, or a rising curve; inactive = flat fitted curve, though single readings scatter; no compound was filed as active;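 also: 0% = full activity with enzyme and -100% = basal without enzyme; dose as in the result columns while the protocol names 77 µM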
The depositor's hits bear a star; ? = inconclusive; . = no result given; & = joins results of further samples; [ ] = dose if it differs, or a comment. Not all compounds are listed, so the mix of outcomes need not match the whole.

SMILES	Rango dissoc inh	Rango-impB inh	miR-21 reporter	GLA inh pH 4.5
CCOC(=O)N1CCN(C2CC(=O)N(c3ccc(C)cc3)C2=O)CC1 (stereo unspecified)	5%	-0.6%	-2%	-1
CCCCCCn1c(=O)c(Cc2ccccc2)c(O)c2ccccc21	-11%	0.3%	-3%	-5[21.1 µM]
Nc1nc(SCC(=O)NCc2ccccc2)n[nH]1	0%	5.1%	2%	1
Cc1ccc(S(=O)(=O)N2CCN(C(=O)c3cccc(F)c3)CC2)cc1	12%	-5.0%	-7%	7
CC(C)(C)CC(C)(C)NC(=O)c1ccccc1	-10%	-2.5%	-1%	1
COc1ccc(NC(=O)COc2cccc(C(F)(F)F)c2)cn1	-24%	?	.	.
COc1cccc(/C=N/NC(=O)CSc2ccccc2C)c1OC	1%	2.5%	-16%	-5
O=S(=O)(NCCN1CCOCC1)c1cccs1	-11%	-2.4%	-3%	-6
O=C(N1CCOCC1)N1CCN(c2ccc(F)cc2)CC1	0%	-3.2%	0%	5
Cn1nnnc1SCC(=O)N1c2ccccc2Sc2ccc(Cl)cc21	0%	-4.1%	-1%	0
NC(=O)[C@@H]1CC2(CC(c3cccc(NC(=O)[C@H]4CCC(=O)N4)c3)=NO2)CN1C(=O)c1ccc(Cl)cc1 (stereo partly specified)	10%	0.6%	0%	-10
COc1ccc(OC)c(N=C(N)N=C(N)N)c1	1%	-0.1%	0%	-4
CC(C)Cc1ccc(CN2CCCC(NC(=O)CCn3cnnn3)C2)cc1 (stereo unspecified)	-17%	-0.4%	5%	.
COc1ccc(/C=N/Nc2nc3ccccc3o2)cc1OC	-13%	-0.6%	-51%	-6
O=C1C2C3C=CC(C3)C2C(=O)N1c1cccc2cccnc12 (stereo unspecified)	-3%	1.0%	6%	5
CC1CC(C)CN(C(=O)c2cccc(NC(=O)CC3SC(N4CCCCC4)=NC3=O)c2)C1 (stereo unspecified)	-8%	1.5%	.	.
CC(NCC(=O)NCCc1ccc(S(N)(=O)=O)cc1)c1ccc(F)cc1 (stereo unspecified)	5%	0.5%	0%	.
COc1ccc(C(=O)Nc2ccc(C)c(S(=O)(=O)N3CCCCCC3)c2)cc1	0%	-0.1%	21%	-6
CCC(=O)Nc1cc(C(=O)OCC(=O)c2ccc(Cl)cc2Cl)ccc1C	-18%	-2.2%	-6%	-3
CNS(=O)(=O)c1cccc(C(=O)NCC(c2cccs2)N2CCOCC2)c1 (stereo unspecified)	0%	-1.8%	.	.
C=CCN1c2ccccc2[C@]23C[C@@H](C(=O)OC)N(C(=O)C4CCC4)C2=NC(C(=O)OC)=C(C(=O)OC)[C@H]13	?	4.6%	1%	7&-1
COc1cccc(NC(=O)CN2CCc3ccccc3C2)c1	27%	4.1%	-24%	.
CC1CCN(C(=O)CSc2nnc(-c3ccccc3F)o2)CC1	1%	2.3%	-26%	.
O=C(CCCc1nc2ccccc2s1)NCc1ccccc1	-7%	-3.9%	-32%	4

3 entries from above, ordered by length of the SMILES, smallest number first.
SMILES	Rango dissoc inh	Rango-impB inh	miR-21 reporter	GLA inh pH 4.5
CC1CCN(C(=O)CSc2nnc(-c3ccccc3F)o2)CC1	1%	2.3%	-26%	.
CCCCCCn1c(=O)c(Cc2ccccc2)c(O)c2ccccc21	-11%	0.3%	-3%	-5[21.1 µM]
CCC(=O)Nc1cc(C(=O)OCC(=O)c2ccc(Cl)cc2Cl)ccc1C	-18%	-2.2%	-6%	-3

The listing continues.
SMILES	Rango dissoc inh	Rango-impB inh	miR-21 reporter	GLA inh pH 4.5
Cc1ccc(C)c2[nH]c(=O)c(CN(Cc3cccnc3)C(=S)NCc3ccco3)cc12	?	-3.4%	12%	0
O=c1nc(Nc2ccc(Br)cc2)sc2ccc([N+](=O)[O-])cc12	0%	-0.9%	-8%	-7
COc1cc(SC)ccc1C(=O)NCCN1CCOCC1	11%	6.0%	-2%	-1
Cc1ccc(S(=O)(=O)NC2CCCCCC2)cc1C(N)=O	-8%	-5.4%	5%	.
CCOC(=O)c1sc2nc(C)nc(SCC(N)=O)c2c1C	35%	2.7%	-5%	-4
Cn1nnnc1SCC(=O)Nc1ccccc1Cl	10%	-5.3%	-8%	-1
COc1ccc(C(=O)N2N=C3CC(C)(C)OCC3C2c2ccccc2)cc1 (stereo unspecified)	0%	2.0%	0%	1
Cc1cc(=O)[nH]c(SC(C)C(=O)Nc2cccc3ccccc23)n1 (stereo unspecified)	-15%	-0.4%	-1%	.
COc1cccc(CN(C)CC(=O)Nc2ccccc2N2CCOCC2)c1OC	-7%	1.5%	0%	-3
O=C1CC(Sc2nnnn2C2CCCCC2)C(=O)N1c1ccccc1 (stereo unspecified)	-4%	?	?	-7
C=CCc1cc(C)ccc1OCCOCCn1ccnc1	-5%	0.5%	-1%	3
Cc1ccc(S(=O)(=O)N2CCN(C(=O)C3CSC4(C)CCC(=O)N34)CC2)cc1C (stereo unspecified)	2%	0.9%	.	.
COc1ccc(C(C)(C)C)cc1NC(=O)COC(=O)c1ccc([N+](=O)[O-])o1	1%	-7.3%	5%	-1
Cc1cccc(N2CCN(C(=O)C(Cc3ccccc3)NC(N)=O)CC2)c1C (stereo unspecified)	9%	0.0%	3%	.
CCN(CC)CCCNC(=O)c1cc(Nc2ccc(OC)cc2OC)nc2ccccc12	14%	-0.4%	-9%	.
O=C(OCC#CCSc1nnc(-c2cccc3ccccc23)o1)c1cnc[nH]1	18%	0.5%	.	.
O=C(O)c1cc(NN=C2c3ccccc3-c3ccccc32)ccc1Cl	?	?	-9%	.
CC(C)[C@H](NC(=O)N1CCn2c1nc1ccccc12)C(=O)NC1CC1	-24%	1.0%	4%	.
Cc1cc(C)cc(NC(=O)c2cccc(NC(=O)c3ccco3)c2)c1	-2%	-2.2%	.	.
O=C1CC(NS(=O)(=O)c2ccc3ccccc3c2)CN1c1ccccc1 (stereo unspecified)	2%	2.2%	.	.
Cc1cccc(-c2nc3c(c(SCC(=O)N4CCCC4)n2)COC(C)(C)C3)c1	-11%	-1.4%	-1%	.
CC1(C(=O)O)CCC(C(=O)Nc2ccccc2)C1(C)C (stereo unspecified)	-9%	0.9%	1%	1
CCN(CC)C(=O)c1cc2c(=O)n3ccccc3nc2s1	-17%	-4.7%	-54%	?
CC(C)c1cccc(C(C)C)c1NC(=O)CNCc1ccccc1F	19%	-0.1%	-6%	-16
CCN=C1SC(C(=O)Nc2ccc(OCC)cc2)CC(=O)N1CC (stereo unspecified)	-10%	0.8%	-4%	1
CC1(C(=O)NC2CCCCCCC2)CC1(Cl)Cl (stereo unspecified)	14%	?	-2%	4
Cc1cc2nc(SCCOC(=O)Nc3ccccc3)nc(C)c2cc1C	-15%	?	-5%	6
Cc1c(C(=O)NC2CCCCC2C)oc2ccccc12 (stereo unspecified)	5%	-1.9%	27%	.
CC(=O)c1ccc(S(=O)(=O)NCCC(=O)NC(C)c2ccncc2)cc1 (stereo unspecified)	-9%	-2.1%	.	.
CCn1c(SCC(=O)Nc2ccc(N(C)C)cc2)nnc1C1CC1	16%	-0.8%	-2%	.
CN(C)/C=N/c1nc2nccc(-c3cccs3)n2n1	3%	0.5%	-8%	?
O=C(CN1CCN(C(c2ccccc2)c2ccccc2)CC1)N1CCN(c2ccccc2)CC1	-7%	2.2%	1%	-9
O=C(CCCCCNC(=O)c1ccccc1)N/N=C/c1ccco1	13%	-2.4%	6%	-10
CCOc1ccccc1NC(=O)CSc1nc2ccccc2nc1N1CCCC1	?	?	-1%	.
COc1ccc(CN(CC2CCCO2)C(=O)CN2C(=O)COc3ccccc32)cc1OC (stereo unspecified)	-5%	-3.3%	-5%	2
CCC(C)c1ccc(C2C3=C(Nc4nc(N)[nH]c(=O)c42)c2ccccc2C3=O)cc1 (stereo unspecified)	2%	-1.1%	0%	5
N/C(=N\OC(=O)CCn1cccc(C(F)(F)F)c1=O)c1ccc(Cl)cc1	-7%	-0.4%	8%	?
O=C(CCNC(=O)C1CCN(S(=O)(=O)c2ccc(F)cc2)CC1)NC1CC1	18%	-2.7%	-3%	.
O=C1CCC(C(=O)OCc2nnc(-c3ccc(Cl)cc3)o2)=NN1	-1%	-0.9%	.	.
CC(C)N(C(=O)[C@H]1CC(CC(=O)NCCCn2ccnc2)C(=O)N2CCc3c([nH]c4ccccc34)[C@]12C)C(C)C (stereo partly specified)	-3%	-5.3%	.	.
COc1c(Cl)cc(-c2noc(C)c2C(=O)NCc2ccc3c(c2)OCO3)cc1Cl	4%	2.2%	-9%	-10
CSc1cc(-c2ccc(Cl)cc2)c(C(=O)NN)s1	0%	-2.6%	-3%	4
Nc1cc(N)nc(SCC(=O)Nc2ccc(Br)cc2Cl)n1	25%	-1.3%	-54%	-8
NC(=S)NC(=O)c1ccccc1	13%	-0.3%	-5%	-15
Cc1nn(C(C)C(=O)Nc2sc3c(c2C#N)CCCC3)c(C)c1[N+](=O)[O-] (stereo unspecified)	14%	-2.2%	-13%	4

Gathered by group: those above with an aryl thioether with sulfur outside any ring
SMILES	Rango dissoc inh	Rango-impB inh	miR-21 reporter	GLA inh pH 4.5
Nc1nc(SCC(=O)NCc2ccccc2)n[nH]1	0%	5.1%	2%	1
COc1cccc(/C=N/NC(=O)CSc2ccccc2C)c1OC	1%	2.5%	-16%	-5
Cn1nnnc1SCC(=O)N1c2ccccc2Sc2ccc(Cl)cc21	0%	-4.1%	-1%	0
CC1CCN(C(=O)CSc2nnc(-c3ccccc3F)o2)CC1	1%	2.3%	-26%	.
COc1cc(SC)ccc1C(=O)NCCN1CCOCC1	11%	6.0%	-2%	-1
CCOC(=O)c1sc2nc(C)nc(SCC(N)=O)c2c1C	35%	2.7%	-5%	-4
Cn1nnnc1SCC(=O)Nc1ccccc1Cl	10%	-5.3%	-8%	-1
Cc1cc(=O)[nH]c(SC(C)C(=O)Nc2cccc3ccccc23)n1 (stereo unspecified)	-15%	-0.4%	-1%	.
O=C1CC(Sc2nnnn2C2CCCCC2)C(=O)N1c1ccccc1 (stereo unspecified)	-4%	?	?	-7
O=C(OCC#CCSc1nnc(-c2cccc3ccccc23)o1)c1cnc[nH]1	18%	0.5%	.	.
Cc1cccc(-c2nc3c(c(SCC(=O)N4CCCC4)n2)COC(C)(C)C3)c1	-11%	-1.4%	-1%	.
Cc1cc2nc(SCCOC(=O)Nc3ccccc3)nc(C)c2cc1C	-15%	?	-5%	6
CCn1c(SCC(=O)Nc2ccc(N(C)C)cc2)nnc1C1CC1	16%	-0.8%	-2%	.
CCOc1ccccc1NC(=O)CSc1nc2ccccc2nc1N1CCCC1	?	?	-1%	.
CSc1cc(-c2ccc(Cl)cc2)c(C(=O)NN)s1	0%	-2.6%	-3%	4
Nc1cc(N)nc(SCC(=O)Nc2ccc(Br)cc2Cl)n1	25%	-1.3%	-54%	-8
